# Source: PubChem
# StopGo FLuc: Primary qHTS Assay for Foot and Mouth Disease Virus Antivirals against NCGC Sytravon and CBC Compound Libraries: Firefly Luciferase Signal; HEK cells with a luciferase reporter of 2A StopGo recoding; Potency, µM (doses to about 57.5 µM), for the others: at the highest dose signal change, negative = less light; 120,000 tested, 0.23% active; AID 1745856, 2022; active = well fitted falling curve with a large enough effect; inconclusive = small, poorly fitted or top-dose-only effect; inactive = no such curve, though single readings can be large or run the other way; note: nearly all actives have a fitted effect of over 60% in size; overnight with compound
# 2A Renilla: Primary qHTS Assay for Foot and Mouth Disease Virus Antivirals against NCGC Sytravon and CBC Compound Libraries: Renilla Luciferase Signal | HEK cells with a luciferase reporter of 2A StopGo recoding | Potency, µM (top dose mostly 57.5 µM), for inactives: at the highest dose signal change, negative = less light | 120,000 tested, 0.32% active | AID 1745857, 2022; active means well fitted falling curve with a large enough effect; inconclusive means small, poorly fitted or top-dose-only effect; inactive means no such curve, though single readings can be large or run the other way; note: nearly all actives have a fitted effect of over 55% in size; overnight with compound
# An asterisk follows results filed as active; ? = inconclusive; & = joins results of further samples; [ ] = dose if it differs, or a comment. % is set by controls: 0 for no effect and ±100 for the full control effect; potency is the fitted concentration of half-maximal effect.
# Below each compound: StopGo FLuc	2A Renilla
CCC(NC(=O)Cc1n[nH]c(=O)c2ccccc12)c1ccc(OC)cc1 (stereo not given)
    18%	1%
Cc1ccc(NC(=O)Cn2cc(S(=O)(=O)N3CCN(c4ccccc4F)CC3)c3ccccc3c2=O)cc1F
    -19%	7%
CC(C)Cn1c(NC2CCCCC2)nc2c1c(=O)[nH]c(=O)n2C
    38%[activator]	24%
COCCn1c(CNC(=O)c2cc([N+](=O)[O-])ccc2Cl)nc2cccnc21
    -14%	-14%
O=C(O)Cc1sc(NC2CCCCC2)nc1-c1ccc(Cl)cc1
    0%	19%
O=C(CCC(=O)c1ccc(F)cc1)OCc1cc(-c2ccccc2)no1
    46%[activator]	9%
Nc1c(N(Cc2ccco2)C(=O)COc2ccccc2F)c(=O)[nH]c(=O)n1Cc1ccccc1
    3%	-2%
Cc1[nH]c2ccccc2c1C1(O)C(=O)N(Cc2ccccc2Cl)c2ccccc21 (stereo not given)
    -9%	32%[activator]
COc1ccc(-c2nc(Cn3c(SCc4cccc(Cl)c4)nc4ccncc43)c(C)o2)cc1
    -10%	-11%
CCS(=O)(=O)N1CCC2(CC1)OC(=O)C(C)=C2C(=O)NCc1ccccc1C
    -2%	-13%
CC1CCC(NC(=O)Cc2coc(-c3ccccc3)n2)CC1 (stereo not given)
    136%[activator]	25%
O=C(CSc1nc2c([nH]c3ccccc32)c(=O)n1-c1ccccc1)N1CCCCC1
    -19%	-8%
N#Cc1ccccc1Sc1ccccc1C(=O)OCC(=O)Nc1ccccc1
    18%	-2%
Cc1cccc(NC(=O)CSc2nc(-c3ccccc3)cn2-c2ccccc2)c1C
    71%[activator]	8%
CC1Cc2cc(S(=O)(=O)N(C)c3ccc(Br)cc3)ccc2N1C(=O)C1CC1 (stereo not given)
    ?	63%[activator]
COc1ccc(NC(=O)c2cc3c(=O)n(Cc4ccco4)ccc3nc2C)cc1
    -18%	3%
CCC(=O)N1CCN(c2ccccc2NC(=O)c2ccc(C#N)cc2F)CC1
    -15%	-18%
O=C(Cc1c[nH]c2ccccc12)N1CCN(c2ccccc2)CC1
    7%	-11%
Clc1ccc(N/N=C/c2c(Cl)cccc2Cl)cc1Cl
    208%[activator]	35%[activator]
COC(=O)c1ccoc1COC(=O)c1ccc(C#N)cc1
    -4%	2%
COc1ccc(NC(=O)CC2Nc3cc(C)c(C)cc3NC2=O)c(OC)c1 (stereo not given)
    20%	9%
CCCCN1CCc2nc(Nc3ccc(OC)cc3OC)ncc2C1
    -7%	-17%
Cc1ccc(CNC(=O)CCc2c(C)c3ccc(O)c(C)c3oc2=O)cc1
    36%&-2%[activator]	33%&-2%[activator]
O=C(c1cc2cc(Cl)ccc2oc1=O)N1CCN(Cc2ccccc2)CC1
    -15%	-15%
CC(C)C(=O)N1c2nc(C(C)C)nn2C2(CCCCC2)[C@@H]2CCCC[C@@H]21
    -15%	-8%
COc1cccc(C(=O)Nc2nnc(S(=O)(=O)N3CCOCC3)s2)c1
    4%	-7%
CCOc1ccc(NC(=O)c2cnn3c2NC(c2ccccc2)=CC3c2cccc(OC)c2OC)cc1 (stereo not given)
    -3%	55%[activator]
Cc1ccc([N+](=O)[O-])cc1NC(=O)Cn1cnc2c1c(=O)n(C)c(=O)n2C
    5%	-1%
O=C(CSc1nnnn1C1CCCC1)c1ccc2ccccc2c1
    0%	13%
COc1ccc(C(=O)CN2CCN(S(=O)(=O)c3ccc(F)cc3)CC2)cc1
    -9%	3%
Cc1c(NC(=O)c2ccc(Cl)cc2)cc(C(C)C)c(O)c1S(=O)(=O)c1ccc(Cl)cc1
    172%[activator]	0%
COc1cc(Cl)c(C)cc1Nc1nc2ccccc2c2nnc(C)n12
    -11%	-16%
CN1CC[C@H](c2c(O)cc(O)c3c(=O)cc(-c4ccccc4Cl)oc23)[C@H](O)C1
    ?	1µM*
Cc1cc(C(=O)OC(C)C(=O)Nc2ccc(Cl)cc2F)c(C)o1 (stereo not given)
    4%	-1%
COc1ccc(/C(C#N)=C\c2ccccc2F)cc1OC
    66%[activator]	-12%[1.06 µM]
CCCN1Cc2cccc(C(=O)Nc3cc(Cl)ccc3Cl)c2C1=O
    -7%	-8%
CC(C)Oc1ccc(NC(=O)CCCc2cccs2)cc1
    179%[activator]	-6%
CCOC(=O)c1ccc(Nc2nc3ccccc3nc2NS(=O)(=O)c2ccc(Cl)cc2)cc1
    6%	-22%
CCc1ccccc1-n1c2c(cc(C#N)c1=O)C(=O)CC(c1ccccc1)C2 (stereo not given)
    18%	16%
Cc1ccc(-c2ccc(=O)n(C(C)C(=O)Nc3c(C)cc(C)cc3C)n2)cc1 (stereo not given)
    3%	-2%
CN(C)C(=O)Oc1ccc2c(=O)c(-c3ccccc3)coc2c1
    209%[activator]	1%
Cc1cc(C)nc(SC(C(=O)c2ccccc2)c2ccccc2)n1 (stereo not given)
    0%	86%[activator]
O=C(CC1N=C2c3ccccc3N=C(SCc3ccccc3Cl)N2C1=O)NCc1cccs1 (stereo not given)
    -17%	-8%
O=C(Nc1nc(-c2ccc(Br)cc2)ns1)c1ccc(F)cc1
    -15%	-8%
CCOc1ccc(CCNC(=O)CCCn2nc(C)c3sc4ccccc4c3c2=O)cc1OCC
    -14%	-15%
CC1CCCN(c2nc3c(c(=O)n(C)c(=O)n3C)n2CC(=O)O)C1 (stereo not given)
    -9%	-13%
CCc1ccccc1NC(=O)C(C)n1c(=O)cc(C)c2c(C)nn(-c3ccccc3)c21 (stereo not given)
    24%	10%
COc1ccc(OC)c(C2CCCN2C(=O)c2csc(-c3ccsc3)n2)c1 (stereo not given)
    0%	44%[activator]
NC(=O)C1CCN(CC(=O)Nc2ccc(Br)cc2)CC1
    4%	3%
Cc1cc(Nc2cccc(C(F)(F)F)c2)nc2ccc(NC(=O)c3cccc(Cl)c3)cc12
    -16%	-11%
CCOC(=O)c1ccc(-n2c(CCC(=O)O)ccc2-c2ccc(Br)cc2)cc1
    0%	0%
COC(=O)c1ccc(OCC(=O)NCC(F)(F)F)cc1
    66%[activator]	-1%
COc1cc(C2CC(=O)Nc3cc4c(cc32)OCO4)cc(OC)c1O (stereo not given)
    22%	33%[activator]
CN(CC(=O)Nc1ccc(Cl)c(C(F)(F)F)c1)Cc1cc(Cl)cc2c1OCOC2
    ?	-27%
COc1cccc(CNC(=O)c2c3c(nc4ccccc24)C(=O)N(C2CCCCC2)C3)c1
    -24%	31%[activator]
Clc1ccc(-c2noc3ncnc(NCCCN4CCN(c5ccccc5)CC4)c23)cc1
    -3%	-6%
N#Cc1ccc(C(=O)Nc2cc(-c3nc4ncccc4o3)ccc2Cl)c(F)c1
    91%[activator]	8%
CC(N)c1cccs1 (stereo not given)
    0%	38%[activator]
CC(Sc1ncnc2ccccc12)C(=O)Nc1cc(Cl)cc(Cl)c1 (stereo not given)
    -2%	-9%
Cn1nc(C(=O)N2CCN(c3ccccc3)CC2)c2c1-c1ccccc1SC2
    -7%	-7%

# Copied from the results shown (three entries):
# Below each compound: StopGo FLuc	2A Renilla
CC(N)c1cccs1 (stereo not given)
    0%	38%[activator]
CC(Sc1ncnc2ccccc12)C(=O)Nc1cc(Cl)cc(Cl)c1 (stereo not given)
    -2%	-9%
Cn1nc(C(=O)N2CCN(c3ccccc3)CC2)c2c1-c1ccccc1SC2
    -7%	-7%

# New compounds follow:
# Below each compound: StopGo FLuc	2A Renilla
O=C(Cn1c(NCc2ccccc2)nc2ccccc21)Nc1ccc2c(c1)OCCO2
    81%[activator]	-7%
CCc1ccc(S(=O)(=O)N2CCN(C(=O)Nc3ccccc3Br)CC2)cc1
    20%	9%
Cc1ccccc1CSCCNC(=O)CN(c1ccccc1)S(=O)(=O)N(C)C
    10%	19%
Cn1ncc2c(NCc3ccccc3Cl)nc(NCCO)nc21
    -20%	-9%
Cc1ccc(NC(=O)c2ccc3snnc3c2)cc1C
    259%[activator]	-2%
CC(C)(C)c1cc(-c2ccccc2)c2cc([N+](=O)[O-])ccc2n1
    -2%	-1%[1.06 µM]
C/C(=N/NC(=O)C(C)C)c1cc(C)c(C)cc1C
    9%	-3%
COc1ccc(C)cc1NC(=O)Cn1c(=O)n(Cc2nc(C)no2)c(=O)c2ccccc21
    9%	10%
COc1ccc(-c2ocnc2C(=O)Nc2ccc(C)c(Cl)c2)cc1
    -7%	-16%
O=C(O)C(c1c[nH]c2cc(Br)ccc12)N1CCN(Cc2cccs2)CC1 (stereo not given)
    5%	-5%
Cc1[nH]c2ccccc2c1C1c2ccccc2C(=O)N1CCC(C)C (stereo not given)
    ?	1%
C=C(C)CN1CCN(CCc2ccccc2)CC1
    11%	-15%
C#CCNC(=O)CN1CCCC1C(=O)NCC(F)(F)F (stereo not given)
    1%	7%
O=C(CCC(=O)N1Cc2ccccc2Oc2ncccc21)NCc1cccc(Cl)c1
    -9%	-8%
COc1cccc(-c2ncnn2-c2sc3c(c2C#N)CCCCC3)c1OC
    -4%	-8%
CCn1c(=O)cc(OCC(=O)NCc2ccccc2OC)c2ccccc21
    7%	35%[activator]
COC(=O)[C@H](NC(=O)Nc1cc(C)cc(C)c1)C(C)C
    28%	6%
O=C(O)c1ccc(CSc2cccc(Cl)c2)cc1
    0%	2%
CCOC(=O)C(NC(=O)[C@@H](NC(=O)c1ccccc1OCC)C(C)C)C(=O)OCC
    3%	12%
CC(C)c1nnc2sc(-c3cc4ccccc4[nH]3)nn12
    0%	2%
Cc1ccc(CCNC(=O)C2CC(=O)N(CCc3ccc(C)cc3)C2)cc1 (stereo not given)
    -19%	2%
CCOC(=O)c1ccc(Oc2c(C(F)(F)F)oc3cc(OC(=O)c4ccccc4)ccc3c2=O)cc1
    0%	-1%
CCOc1ccc(N2CC(C(=O)Nc3cc(C)ccn3)CC2=O)cc1 (stereo not given)
    23%	10%
CCOC(=O)c1cc(-c2ccc(OC)cc2)n(CCC(=O)Nc2ccc(OC)cc2OC)c1C
    8%	14%
COc1ccc(NC(C)c2nc(-c3cccs3)no2)cc1 (stereo not given)
    0%	13%
CCOc1cc(C2C(C#N)=C(N)Oc3cc4c(cc32)OCO4)c(Br)cc1OC (stereo not given)
    -10%	0%
O=C(COc1ccccc1-c1nnc(-c2ccccc2)o1)Nc1ccc(Br)cc1F
    0%	10%
CCCCn1nc(C(=O)Nc2ccc(OC(F)F)c(Cl)c2)c2ccccc2c1=O
    15%	10%
COc1cccc(-c2nc(CSCC(=O)NCCc3ccc(Cl)cc3)c(C)o2)c1
    0%	-41%
COc1ccc(C)cc1NC(=O)CN1CCN(S(=O)(=O)c2ccc(Br)cc2)CC1
    -16%	-10%
COc1ccc(C(C)=O)cc1CO/N=C/c1ccccc1Cl
    0%	76%[activator]
CC1CCC2(CC1)NC(=O)N(Cc1coc(-c3cccs3)n1)C2=O (stereo not given)
    9%	-8%
COCCc1nn2c(=O)cc(COC(=O)c3cccs3)nc2s1
    -7%	-10%
c1ccc(-c2cc3ncc4c(n3n2)-c2ccccc2OC4)cc1
    271%[activator]	6%
O=C(Nc1ccc2c(c1)OCO2)c1cccn(Cc2ccccc2)c1=O
    67%[activator]	-2%
CC(=O)Nc1ccc(C(=O)CSc2nnc3ccc4ccccc4n23)cc1
    0%	-6%
CC1CN(CCCCN)CC(C)O1 (stereo not given)
    -5%	7%
CCOC(=O)c1ccc(NC(=O)C2=C(C)C(=O)OC23CCN(C(C)=O)CC3)cc1
    -18%	-12%
Cc1cc(C)cc(-n2nnc(-c3nc(-c4ccccc4F)no3)c2C)c1
    22%	-5%
Cc1ccc(NC(NC(=O)c2cccc(C)c2)C(Cl)(Cl)Cl)cc1 (stereo not given)
    0%	16%

# The last 4 records of the section before open the next one.
# Below each compound: StopGo FLuc	2A Renilla
CC1CN(CCCCN)CC(C)O1 (stereo not given)
    -5%	7%
CCOC(=O)c1ccc(NC(=O)C2=C(C)C(=O)OC23CCN(C(C)=O)CC3)cc1
    -18%	-12%
Cc1cc(C)cc(-n2nnc(-c3nc(-c4ccccc4F)no3)c2C)c1
    22%	-5%
Cc1ccc(NC(NC(=O)c2cccc(C)c2)C(Cl)(Cl)Cl)cc1 (stereo not given)
    0%	16%
Cc1ccccc1N1CC(C(=O)Nc2ccccc2C(=O)N(C)Cc2ccccc2)CC1=O (stereo not given)
    0%	47%[activator]
COc1ccc(NC(=O)CSC2=Nc3ccccc3C3=NC(CCC(=O)NC4CCCCC4)C(=O)N23)cc1 (stereo not given)
    -20%	-1%
CCn1cc2nc(SCc3cccc(C(F)(F)F)c3)n(Cc3ccc(C)cc3)c(=O)c2n1
    ?	-13%
Cc1ccc(CNC(=O)c2ccc(N3Cc4ccccc4Oc4ncccc43)s2)cc1
    0%	-3%
CCc1ccc(Oc2coc3cc(OC(=O)OC)ccc3c2=O)cc1
    124%[activator]	30%[activator]
CCOc1ccc(CNCc2c(C(=O)O)c(C)n(Cc3c(F)cccc3Cl)c2C)cc1OC
    -30%	3%
COC(=O)C1=CN(C)C=C(C(=O)OC)C1c1ccccc1OCc1ccccc1
    -15%	-2%
COc1cc2c(cc1OC)C(c1ccccc1)N(CC(=O)Nc1ccc(NC(C)=O)cc1)CC2 (stereo not given)
    3%	5%
CN(C)C(=O)c1cccnc1-c1nc2ccccc2s1
    6%	-3%
CCN(CC)C(=O)COC(=O)c1ccccc1NC(=O)c1ccco1
    30%[activator]	-3%

# These rows are one share of the data (hit frequency here may not be typical).
